T cruzi repl: blocks replication of Trypanosoma cruzi; T. cruzi beta-gal in NIH3T3, luminescence, 90 h; inhibition, % (test concentration not listed); 1.4% of 300,000 active; AID 1885;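 active = mean inhibition across valid replicates above about 55%, limit read from the data; inconclusive = mean below that limit but half or more replicates reach it; inactive = mean below it, under half of replicates reach it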;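 note: signal also drops with host cell toxicity which is not excluded here; 0% = plate median of DMSO wells and 100% = zero luminescence signal; higher percent means less beta-gal luminescence so fewer parasites; stock transfer was 50 nL into about 50 µL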
Calb FLC: affects C. albicans growth with fluconazole; C. albicans CaCi-2 (fluconazole-resistant clinical isolate) + fluconazole, Alamar Blue growth, 48 h; growth inhibition, % (test concentration not listed); 0.57% of 300,000 active; AID 1979;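 active = most replicates above 75%; inconclusive = exactly half above 75%; inactive = most below 75%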;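 note: all wells also contain fluconazole at 8 µg/ml as a sub-toxic cotreatment; 0% = median of DMSO wells and 100% = median of geldanamycin control wells; wells of about 8 µL received 7.5 nL stock; the first replicate is given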
Beta cell apopt: beta cell apoptosis inhibition | 0.8% of 300,000 active | protection from apoptosis, % (no concentration beside the values) | INS-1E cytokine-induced death, ATP luminescence, 48 h; percent of positive-control rescue, neutral wells zero;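 active = all replicates at 75% or more, or half of them and the mean; inconclusive = half reach 75% but not the mean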;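 note: 0% = cytokine-treated negative control wells and 100% = positive control rescue; higher means more ATP so stronger rescue from cytokine killing; wells of about 40 µL received 100 nL stock; the first replicate is given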
Vif TR-FRET: HIV-1 Vif–A3G interaction blockers – biochemical, TR-FRET, GST-Vif 1-94, biotin-A3G peptide, dose response retest, primary screen (AID 1117319); TR-FRET GST-Vif / biotin-A3G peptide binding; higher % means a stronger effect; test concentration not given here; strong numbers were not always called active; 0.57% of 260,000 active; inhibition, %, or IC50 in µM where a hit was titrated;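 active = above the screen mean plus three standard deviations and confirmed in dose response; inconclusive = results disagree or hit not tested in dose response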;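 note: Vif residues 1-94 fused to GST binding biotinylated APOBEC3G peptide 110-148; 0% = full assay without inhibitor and 100% = GST in place of GST-Vif; retest series ran down from 100 µM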
A1 inh: inhibitors of the anti-apoptotic protein A1, read as caspase activation. MEF A1-2A-BIM cells, Caspase-Glo 3/7 luminescence, 3 h; percent of clofoctol response, vehicle zero. AID 2462. 0.066% of 330,000 active. caspase activation, % (test concentration not listed);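 active = over half of replicate activation scores above 10%, or exactly half above 10 with the replicate mean above 10; inconclusive = replicate mean below 10 yet half the replicates above 10; inactive = over half of replicates below 10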;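 note: wells of about 30 µL received 50 nL stock; many hits fall short of the cut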
LANA-H2A inh: blocks KSHV LANA binding to histone H2A/H2B | cell-free LANA-H2A/H2B peptide, fluorescence polarization | inhibition, % (no concentration beside the values) | 0.6% of 320,000 active; in the data active = inhibition mostly above about 10%, no sharp cut-off; inactive = mostly below about 6.7%;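 note: stock transfer was 7.5 nL into about 10 µL; 0% = median of vehicle wells and 100% = median of positive control wells; one replicate is shown; the record names a cut of 25% in any replicate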
RanGTP-Imp inh: disruptors of Ran-importin-beta complex formation – biochemical, FRET, CFP-Ran, YFP-importin-beta, homogeneous, primary screen; cell-free CFP-Ran/YFP-importin-beta FRET ratio; inhibition, % (no concentration beside the values); 1.1% of 300,000 active; AID 2216;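 active = most replicates above 15%; inconclusive = exactly half above 15%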;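 note: 0% = DMSO wells and 100% = Ran loaded with GDP instead of GTP; wells of about 40 µL received 100 nL stock; the first replicate is given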
MLL AF4-AF9 inh: inhibitors of human MLL-AF4/AF9 interaction; P42568; AlphaScreen, biotin-AF4 peptide binding to FLAG-AF9; inhibition, % at 10 µM; 0.47% of 350,000 active; AID 651704;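 active = every replicate reaching a set inhibition limit, whatever the replicate mean, cut at about 25% in these data; inconclusive = mean inhibition reaches that limit but some replicates miss it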;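 note: 0% = plate neutral control median and 100% = total signal loss; the record names both 10 and 1 µM as test concentration; the first replicate is given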
Target sequence (P42568 whole entry, looked up): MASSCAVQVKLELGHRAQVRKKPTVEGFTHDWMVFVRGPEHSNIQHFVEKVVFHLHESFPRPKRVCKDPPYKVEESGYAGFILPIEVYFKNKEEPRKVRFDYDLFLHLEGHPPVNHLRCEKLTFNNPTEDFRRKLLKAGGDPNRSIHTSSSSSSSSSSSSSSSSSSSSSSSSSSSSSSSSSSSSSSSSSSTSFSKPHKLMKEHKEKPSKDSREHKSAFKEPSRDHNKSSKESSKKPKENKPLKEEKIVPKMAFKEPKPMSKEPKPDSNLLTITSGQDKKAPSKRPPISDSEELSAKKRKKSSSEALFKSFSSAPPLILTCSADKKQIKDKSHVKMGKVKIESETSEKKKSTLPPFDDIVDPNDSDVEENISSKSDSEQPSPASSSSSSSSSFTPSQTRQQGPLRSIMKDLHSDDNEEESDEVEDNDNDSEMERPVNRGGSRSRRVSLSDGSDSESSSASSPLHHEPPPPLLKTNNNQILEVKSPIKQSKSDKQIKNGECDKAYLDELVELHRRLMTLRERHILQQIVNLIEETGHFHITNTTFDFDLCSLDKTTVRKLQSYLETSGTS
* hit, by the source's call; ? = inconclusive; . = no result given. An unsorted share of the library (roughly 4.3% active in at least one column).

SMILES	T cruzi repl	Calb FLC	Beta cell apopt	Vif TR-FRET	A1 inh	LANA-H2A inh	RanGTP-Imp inh	MLL AF4-AF9 inh
NC(=O)CC(NC(=O)Cc1ccc(Br)cc1)c1ccc(NCc2ccccn2)c([N+](=O)[O-])c1 (stereo not given)	0	-17	-12	.	-0.3	-0.1	2.3	2.5
CCN(CC)c1cc(C(F)(F)F)nc(-c2ccccn2)n1	5	24	-4	-1%	1.5	2.9	4.5	.
CSCC[C@H](NC(=O)c1cccc(S(=O)(=O)N2CCN(C)CC2)c1)c1nc2ccccc2[nH]1	.	.	-2	-5%	0.1	-4.6	.	2.7
Cn1c(C2CCCCC2)nc2c1c(=O)[nH]c(=O)n2Cc1ccccc1	11	-8	4	2%	0.6	5.2	9.5	5.3
Cc1cc(C)c2nc(NC(=O)c3cccc(S(=O)(=O)N4CCc5ccccc54)c3)sc2c1	11	-1	8	5%	0.7	-0.3	-4.3	2.7
Clc1ccc(-c2ccc(C=Nc3ccc(N4CCOCC4)cc3)o2)c(Cl)c1	7	25	1	.	0.1	-1.8	-0.6	2.5
CCc1cc(C(=O)Nc2cc(S(=O)(=O)N(CC)CC)ccc2N2CCOCC2)sc1C	?	13	3	10%	-0.5	2.8	-2.7	2.0
Cc1nc(C)c(C(=O)C2=C(O)C(=O)N(CCCn3ccnc3)C2c2ccc(Cl)cc2)s1 (stereo not given)	-4	-7	.	0%	0.9	-1.8	1.6	.
CCCc1cc(=O)[nH]c(SCC(=O)N(CC)Cc2ccccc2)n1	-12	-5	-9	6%	0.5	2.4	-1.9	.
CCC(c1nnnn1C(C)(C)C)N1CCN(Cc2ccccc2OC)CC1 (stereo not given)	-10	-1	0	1%	0.0	2.6	?	3.7
COc1cc2c(cc1OC)C(c1ccccc1Cl)N(C)CC2 (stereo not given)	2	-1	1	.	0.2	0.1	-1.8	6.1
Cc1cc(C)c2nc(NC(=O)C3CSC4(C)CCC(=O)N34)sc2c1 (stereo not given)	.	.	-3	-15%	-0.1	.	.	-6.4
S=C(NCc1ccco1)N1CCN(c2cccc(Cl)c2)CC1	7	1	-8	-3%	-0.6	-5.5	6.6	3.4
CC(=O)Nc1ccc(NC(=O)Cn2nc(C(=O)Nc3ccc(C)cc3)ccc2=O)cc1	-9	-6	-6	.	0.3	-0.2	0.8	-0.4
CCOc1ccccc1Nc1nnc(SCC(=O)N2CCCC2)s1	3	2	-5	?	-0.3	2.6	4.6	.
CCc1nnc(NC(=O)CSc2nc3cc4c(cc3cc2C)OCCO4)s1	20	0	-5	-13%	2.3	3.9	-0.6	.
Cc1cc(Cl)ccc1OCCCC(=O)NNC(=O)c1ccccc1O	13	4	-1	-3%	-0.2	-7.2	5.2	7.5
COCCNc1nc2nonc2nc1N(C)Cc1ccc(C)cc1	-1	-5	2	29%	-0.9	-0.2	-1.0	2.2
COc1ccc(C2CC(c3ccccc3)=NN2C(=O)COC(=O)c2cccc(O)c2)cc1 (stereo not given)	.	.	0	-9%	-0.1	3.0	.	-0.9
Cc1ccc(NC(=O)Nc2sc(=S)n(C)c2C)cc1	-19	-6	1	14%	0.1	-1.7	1.7	.
CCOc1ccc(CCNC(=O)CCS(=O)(=O)c2ccc(OC)cc2)cc1OCC	2	9	-5	-1%	0.0	-22	3.4	-2.2
CCOCc1nnc(NC(=O)CCc2ccccc2)s1	8	0	-2	-6%	2.6	-7.1	?	.
Cc1nnc(NC(=O)c2cccc(Br)c2)s1	6	-6	-15	2%	-1.5	5.3	0.1	.
COc1ccc(C(CC(=O)N2CCCCC2)c2c(OC)cc(OC)c3c(-c4ccccc4)cc(=O)oc23)cc1 (stereo not given)	15	20	-3	.	0.3	-0.5	4.8	3.1
O=C(/C=C/c1ccco1)c1cccnc1	-3	20	-3	14µM*	-1.1	-0.8	0.8	-0.9
The results go on:
SMILES	T cruzi repl	Calb FLC	Beta cell apopt	Vif TR-FRET	A1 inh	LANA-H2A inh	RanGTP-Imp inh	MLL AF4-AF9 inh
CCOC(=O)C(CCCOc1cccc(OC)c1)C(=O)OCC	8	4	-7	-1%	-0.2	-1.7	3.1	.
O=C(Nc1ccn(Cc2c(F)c(F)cc(F)c2F)n1)c1ccc(COc2ccc(Cl)cc2Cl)o1	51	-18	-4	16%	-0.6	1.6	?	.
COCCCN=C1NN=C(c2cc(C)n(-c3ccccc3)c2C)CS1	17	-4	-3	-8%	-0.7	5.9	4.4	0.1
Cc1cccc(N(Cc2cc3ccccc3[nH]c2=O)S(C)(=O)=O)c1	-7	0	-2	13%	0.4	4.6	-0.4	-0.7
CCOC(=O)C1CCN(S(=O)(=O)Cc2ccccc2)CC1	-13	13	0	1%	1.4	1.5	?	-16
Cn1c(SCC(=O)NCc2ccc3c(c2)OCO3)nc2scc(-c3cccs3)c2c1=O	18	0	-2	-17%	0.2	2.1	-0.5	.
COc1ccc(Cn2c(S(=O)(=O)CC(N)=O)nc3ccccc32)cc1[N+](=O)[O-]	-8	2	-12	-7%	0.3	-1.7	-4.5	.
CN(C)CCCNC(=O)C(=O)NCC1OCCN1S(=O)(=O)c1cccs1 (stereo not given)	12	2	-4	.	0.0	-1.8	2.3	2.1
CCCCCCc1ccc(N2C[C@H](CCCCC)[C@@H](CC(=O)NCc3ccc(OC)cc3)C2=O)cc1	30	9	18	.	0.0	-3.5	?	-12
COc1ccc(NC(=O)CSCC(=O)Nc2cc(Cl)ccc2N2CCCC2)cc1	-4	5	-1	.	0.1	-1.4	0.2	1.7
O=c1cc(O)c2c(=O)n(C3CCCCC3)c3ccccc3c2o1	-2	1	5	-9%	0.0	4.8	-0.9	.
CCOC(=O)C1CCN(C(=O)c2sc3nc(C)nc(N4CCC(C)CC4)c3c2C)CC1	10	17	-6	-11%	?	1.5	4.3	.
Cc1ccccc1NC(=O)c1ccc2c(c1)C(=O)N(CCC(C)C)C2=O	-6	-10	-2	3%	0.8	-6.2	-4.4	.
CC1(C)CC(=O)C(C=NCc2cccnc2)=C(O)C1	-14	6	-1	-4%	-0.2	-4.8	-1.4	.
O=C(/C=C/c1ccncc1)c1ccc2c(c1)OCCO2	2	67*	23	6%	0.1	-3.3	-1.8	-1.7
Cc1cccc(/C=N/NC(=O)c2c(-c3ccccc3)noc2C)c1O	52	-20	92*	.	-0.1	1.3	-0.2	3.8
COc1ccc(CN2CCNC(=O)C2CC(=O)NCc2cn3ccc(C)cc3n2)c(OC)c1 (stereo not given)	3	1	-4	-8%	0.8	4.2	1.2	-5.6
Nc1nc(O)c(CC(=O)O)s1	-14	1	-5	32%	0.6	3.6	-2.9	-2.0
CC#CC(=O)NCC1(N(C)Cc2ccccc2)Cc2ccccc2C1	-15	1	.	.	-0.9	3.4	2.6	7.0
O=C(c1ccccc1)N1CCC(CC2CC(c3cccc(Br)c3)=NO2)(C(=O)NCC2CCCCC2)CC1 (stereo not given)	44	22	3	.	-0.3	-3.8	1.4	.
CN(Cc1ccccc1)C(=O)COC(=O)/C=C/c1ccco1	-9	-5	-4	31%	1.4	3.7	-0.5	-6.0
CC[C@@]12C(=O)N(c3ccccc3)C(=O)N1[C@H](c1ccc(OC)cc1)[C@@H]1C(=O)N(C(C)(C)C)C(=O)[C@@H]12	1	-5	-3	.	0.3	-1.3	-4.1	-7.8
CN(C)C(=S)N=Nc1[nH]c2ccccc2c1O	48	?	23	6%	0.3	-6.7	4.4	-2.9
CCSc1nnc2ccc(-c3ccc(C)cc3)nn12	-14	-4	-5	-2%	0.6	7.4	-2.3	-2.3
O=C(c1ccc(CNc2c(N3CCCC3)c(=O)c2=O)cc1)N1CC=C(c2ccccc2)CC1	-4	2	4	-10%	?	0.2	-1.8	-28
More compounds
SMILES	T cruzi repl	Calb FLC	Beta cell apopt	Vif TR-FRET	A1 inh	LANA-H2A inh	RanGTP-Imp inh	MLL AF4-AF9 inh
O=C(CSc1ccc2nnc(-c3ccccn3)n2n1)Nc1nccs1	-6	-1	-4	-3%	0.0	-3.3	1.6	1.6
CCCC/C(C)=N/NC(=O)NC1CCCCC1	-8	-13	1	-2%	1.4	5.6	-2.4	.
CS(=O)(=O)N(CC(=O)Nc1ccccc1-c1ccccc1)c1cccc(F)c1	.	17	-2	0%	0.3	-0.2	0.5	-0.9
Cc1cc(C)cc(NC(=O)CN2CCN(CCN=CC3=C(O)CC(c4ccc(Cl)cc4)CC3=O)CC2)c1 (stereo not given)	-13	8	-7	-6%	0.6	0.2	4.6	-1.1
O=C(NN=C1CCCCCC1)c1c[nH]c2ccccc12	2	-12	-7	11%	-0.2	1.9	-1.8	.
NS(=O)(=O)c1cccc(NC(=S)NCc2ccc3c(c2)OCO3)c1	.	116*	-2	29%	0.1	-1.1	.	-0.2
O=C(CN(Cc1ccccc1)C(=O)CNS(=O)(=O)c1ccc(Cl)cc1)NCC1CCCO1 (stereo not given)	2	10	-5	.	-0.4	4.0	3.7	0.3
Cc1ccc2nc(N3CCN(S(=O)(=O)c4ccc5c(c4)OCCO5)CC3)c(C#N)cc2c1	23	1	8	6%	-0.1	-4.8	6.4	.
Cc1ccc(NC(=O)c2ccccc2N(C)S(C)(=O)=O)cc1C	-2	-22	2	-5%	-0.2	2.3	3.3	.
O=C(NCCOCc1ccc(Cl)cc1)c1ncn[nH]1	-5	-4	-3	-5%	-0.4	-2.6	5.8	.
Cc1ccsc1C(=O)N1CCCC(N2CCN(c3cccc(Cl)c3)CC2)C1 (stereo not given)	14	-7	-2	.	-0.1	7.1	2.8	-3.6
Cc1cc(C)c(C(=O)N(CCN(C)C)CC2CCCN(Cc3ccccc3F)C2)o1 (stereo not given)	14	3	2	3%	-0.7	0.5	2.7	10
N#C/C(=C\c1ccc(O)cc1)c1nc2ccccc2o1	16	-2	9	-2%	-5.5	-11	4.8	1.2
CN(CC(=O)Nc1cccc(C(F)(F)F)c1)C1=NS(=O)(=O)c2ccccc21	.	.	-5	-14%	1.1	0.6	.	-0.8
N#C/C(=C\c1cccc(O)c1)C(=O)Nc1ccc2c(c1)OCCO2	-2	-1	-5	.	-1.0	2.4	2.0	2.4
Cc1nc2cc(C(F)(F)F)ccc2n1C1CCN(CC(=O)N2CCCC2)CC1	-13	-1	-3	.	0.3	-1.2	-1.7	0.8
O=C(Nc1cccc(C(=O)O)c1)/C(=C\c1ccc2c(c1)OCO2)NC(=O)c1ccccc1	5	-3	1	27%	0.6	-0.1	0.2	-9.0
O=C(CN1C(=O)CSc2ccc(S(=O)(=O)N3CCOCC3)cc21)NCc1ccc(Cl)cc1	4	3	-7	.	-0.1	-1.4	1.3	0.1
COc1ccc(S(=O)(=O)N2CCc3ccccc3C2)cc1C(=O)O	4	-8	-5	-1%	0.0	2.0	-3.2	0.6
COc1ccc(OCCCC(=O)Nc2nc(C)c(C(C)=O)s2)cc1	-13	-4	3	.	-0.1	-5.5	-0.2	3.7
CCC(C)NC(=O)C1(O)c2cc(Br)ccc2NC(=O)N1c1cccc(OC)c1 (stereo not given)	-1	-1	-2	0%	0.0	3.2	-4.2	-0.5
O=C(NCCc1ccccn1)c1cccnc1Oc1ccc(Cl)cc1	.	-3	-9	.	0.1	-0.6	-2.1	-7.8

Screening data from PubChem.
